Screening results (PubChem BioAssay)
LANA-H2B inh: blockers of LANA interaction with H2A/H2B – biochemical, FP readout, HTS, primary screen; Protein LANA1 (Human herpesvirus 8 type P (isolate GK18)), Q9QR71; cell-free LANA-H2A/H2B peptide, fluorescence polarization; inhibition, % (concentration not given with the values); 320,000 tested, 0.6% active; in the data active = inhibition mostly above about 10%, no sharp cut-off; inactive = mostly below about 6.7%;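 note: stock transfer was 7.5 nL into about 10 µL; 0% = median of vehicle wells and 100% = median of positive control wells; one replicate is shown; the record names a cut of 25% in any replicate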
RanGTP-Imp inh: inhibitors of RanGTP-importin-beta interaction, primary screen, biochemical, FRET, CFP-Ran, YFP-importin-beta, homogeneous | cell-free CFP-Ran/YFP-importin-beta FRET ratio | 300,000 tested, 1.1% active | AID 2216, 2009 | inhibition, % (no concentration beside the values);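 active = most replicates above 15%; inconclusive = exactly half above 15%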;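 note: 0% = DMSO wells and 100% = Ran loaded with GDP instead of GTP; wells of about 40 µL received 100 nL stock; the first replicate is given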
Beta cell apopt: inhibitors of cytokine-induced beta cell apoptosis, primary screen, luminescence; INS-1E cytokine-induced death, ATP luminescence, 48 h; percent of positive-control rescue, neutral wells zero; protection from apoptosis, % (concentration not given with the values); 300,000 tested, 0.8% active;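 active = all replicates at 75% or more, or half of them and the mean; inconclusive = half reach 75% but not the mean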;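 note: 0% = cytokine-treated negative control wells and 100% = positive control rescue; higher means more ATP so stronger rescue from cytokine killing; wells of about 40 µL received 100 nL stock; the first replicate is given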
AF4-AF9 inh: inhibitors of AF4 peptide binding to AF9, primary screen, biochemical, AlphaScreen, biotin-AF4 peptide, FLAG-AF9, single point. Protein AF-9 (Homo sapiens), P42568. inhibition, % at 10 µM. 350,000 tested, 0.47% active;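 active = every replicate reaching a set inhibition limit, whatever the replicate mean, cut at about 25% in these data; inconclusive = mean inhibition reaches that limit but some replicates miss it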;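 note: 0% = plate neutral control median and 100% = total signal loss; the record names both 10 and 1 µM as test concentration; the first replicate is given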
Target sequence (P42568 whole entry, looked up): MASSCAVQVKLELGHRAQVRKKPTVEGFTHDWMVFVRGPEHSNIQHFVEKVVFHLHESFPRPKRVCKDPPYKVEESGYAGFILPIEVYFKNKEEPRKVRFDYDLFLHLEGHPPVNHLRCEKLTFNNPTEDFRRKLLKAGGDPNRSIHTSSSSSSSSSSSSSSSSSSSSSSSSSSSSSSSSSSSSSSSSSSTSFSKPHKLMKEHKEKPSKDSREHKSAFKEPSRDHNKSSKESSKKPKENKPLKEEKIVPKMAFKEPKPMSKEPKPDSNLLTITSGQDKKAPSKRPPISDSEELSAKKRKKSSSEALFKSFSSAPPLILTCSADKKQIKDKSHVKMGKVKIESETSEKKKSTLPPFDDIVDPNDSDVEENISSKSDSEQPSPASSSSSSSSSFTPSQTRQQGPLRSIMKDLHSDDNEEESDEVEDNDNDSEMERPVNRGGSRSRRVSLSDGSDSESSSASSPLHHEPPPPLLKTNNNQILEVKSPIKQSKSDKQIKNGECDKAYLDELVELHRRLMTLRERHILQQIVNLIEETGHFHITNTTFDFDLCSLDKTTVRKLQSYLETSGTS
Vif TR-FRET: inhibitors of Vif binding to APOBEC3G peptide, primary screen, biochemical, TR-FRET, GST-Vif 1-94, biotin-A3G peptide, dose response retest (AID 1117319) | 260,000 tested, 0.57% active | Virion infectivity factor (Human immunodeficiency virus type 1 group M subtype B (isolate … | TR-FRET GST-Vif / biotin-A3G peptide binding; higher % means a stronger effect; test concentration not given here; strong numbers were not always called active | inhibition, %, or IC50 in µM where a hit was titrated;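 active = above the screen mean plus three standard deviations and confirmed in dose response; inconclusive = results disagree or hit not tested in dose response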;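 note: Vif residues 1-94 fused to GST binding biotinylated APOBEC3G peptide 110-148; 0% = full assay without inhibitor and 100% = GST in place of GST-Vif; retest series ran down from 100 µM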
Bfl-1 A1 inh: caspase 3/7 activation in MEF A1-2A-BIM cells, primary screen, A1 inhibitor project, cell-based, luminescence, HTS | AID 2462, 2010 | caspase activation, % (concentration not given with the values) | 330,000 tested, 0.066% active | Caspase-Glo 3/7 luminescence, 3 h; percent of clofoctol response, vehicle zero;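 active = over half of replicate activation scores above 10%, or exactly half above 10 with the replicate mean above 10; inconclusive = replicate mean below 10 yet half the replicates above 10; inactive = over half of replicates below 10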;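 note: wells of about 30 µL received 50 nL stock; many hits fall short of the cut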
T cruzi inh: inhibitors of intracellular T. cruzi growth, primary screen, luminescence, NIH3T3 host cells; T. cruzi beta-gal in NIH3T3, 90 h; inhibition, % (test concentration not listed); 300,000 tested, 1.4% active; AID 1885, 2009;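 active = mean inhibition across valid replicates above about 55%, limit read from the data; inconclusive = mean below that limit but half or more replicates reach it; inactive = mean below it, under half of replicates reach it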;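 note: signal also drops with host cell toxicity which is not excluded here; 0% = plate median of DMSO wells and 100% = zero luminescence signal; higher percent means less beta-gal luminescence so fewer parasites; stock transfer was 50 nL into about 50 µL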
Calb FLC: C. albicans growth inhibition with fluconazole, primary screen, CaCi-2 strain, Alamar Blue fluorescence; C. albicans CaCi-2 (fluconazole-resistant clinical isolate) + fluconazole, 48 h; growth inhibition, % (concentration not given with the values); 300,000 tested, 0.57% active; AID 1979, 2009;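 active = most replicates above 75%; inconclusive = exactly half above 75%; inactive = most below 75%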;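 note: all wells also contain fluconazole at 8 µg/ml as a sub-toxic cotreatment; 0% = median of DMSO wells and 100% = median of geldanamycin control wells; wells of about 8 µL received 7.5 nL stock; the first replicate is given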
* marks the source's active call; other numbers are inactive results; ? = inconclusive; nt = not tested or not shown; & = joins results of further samples.

SMILES	LANA-H2B inh	RanGTP-Imp inh	Beta cell apopt	AF4-AF9 inh	Vif TR-FRET	Bfl-1 A1 inh	T cruzi inh	Calb FLC
CCCSC(=S)NC1CCS(=O)(=O)C1 (stereo not given)	-0.4	-2.0	-44	nt	7%	0.3	6	?
CCc1ccc(N2CC(C(=O)Nc3ccc4c(c3)OCCO4)CC2=O)cc1 (stereo not given)	-2.4	3.7	5	-2.0	nt	0.1	4	-5
CSCCC(NC(=O)COc1ccccc1)C(=O)Nc1ccc(C)cc1 (stereo not given)	-4.7	1.7	-3	nt	nt	0.0	9	3
O=C(COC(=O)c1n[nH]c2ccccc12)Nc1ccccc1	-0.6	-9.8	-7	-1.2	-9%	0.3	-10	28
O=C(O)c1ccccc1CSc1nc2ccccc2s1	-2.1	-3.5	1	-3.3	nt	-1.8	-12	23
CCC(=O)NC(=S)Nc1cc(C(=O)O)ccc1OC	1.0	-2.5	-5	-0.1	nt	-0.8	-3	12
CCC(C)NC(=O)CC1Oc2ccc(Cl)cc2NC1=O (stereo not given)	5.4	5.3	3	-1.9	-1%	0.2	-9	5
CC(C)(C)c1csc(N(CCC#N)CCC#N)n1	2.6	2.5	-7	nt	3%	0.9	8	34
COc1ccc(-c2cc(C(F)(F)F)n3ncc(C(=O)N4CCc5ccccc5C4)c3n2)cc1	2.0	nt	9	-2.0	4%	-0.3	63*	-6
C/C(=C\c1ccccc1)C(=O)Nc1cc(C)on1	-0.8	-1.7	-1	nt	16%	-0.3	-5	-4
O=C(NCc1cccnc1)c1ccc(S(=O)(=O)N2CCOCC2)cc1	1.4	3.8	-3	-0.8	-2%	0.4	-22	10
COc1ccc(OC)c(CCNC(=O)c2ccc3c(=O)[nH]c4c(C(=O)NC(C)C)sc(=S)n4c3c2)c1	0.2	5.2	10	-1.4	nt	-0.3	-11	-11
Cc1cccc(NC(=O)c2nc[nH]c2C(=O)NCCCCCCNC(=O)c2[nH]cnc2C(=O)Nc2cccc(C)c2)c1	5.5	nt	-1	-13	nt	-1.5	nt	nt
CCN1CCN(C(=O)N2CCOCC2)CC1	5.2	?	0	0.5	nt	-0.1	-1	-2
COc1ccc(/C(C)=N/NC(=O)CNC(=O)/C=C\c2ccco2)cc1	2.4	-1.5	0	-1.8	-1%	0.5	-15	-4
Cc1ccc(S(=O)(=O)N(C)C)cc1[N+](=O)[O-]	0.5	-3.4	-3	6.7	-2%	0.3	-6	-9
COc1ccc(S(=O)(=O)N(C)C[C@H]2Oc3ccc(NC(=O)CCC(F)(F)F)cc3C(=O)N([C@H](C)CO)C[C@@H]2C)cc1	2.1	nt	-8	0.3&-2.3	2%	0.5	nt	nt
COC(=O)c1cccc(NC(=O)C2COc3ccccc3O2)c1 (stereo not given)	-2.6	1.7	1	nt	0%	-4.7	0	-11
CC1CCCCC1Nc1ncnc2sccc12 (stereo not given)	2.2	?	6	7.5	nt	-0.1	-9	-6
C#CCOCCOCCOCCNc1nc(N2CCOCC2)nc(N2CCN(C(=O)[C@H]([C@@H](C)CC)n3cc(CCCN=C(N)N)nn3)CC2)n1	1.3	?	0	2.1	-4%	2.6	-18	-11
COc1ccc(-n2c(Cc3cccn3C)nnc2SCC(=O)Nc2cccc(NC(C)=O)c2)cc1	0.2	?	-4	nt	0%&3%	1.4	4	9
NC(=O)C(c1ccc(Sc2ccccc2)nn1)c1ccc(Cl)cc1Cl (stereo not given)	-6.2	1.4	-8	nt	4%	0.4	4	-9
COc1ccc(Cl)cc1NC(=O)c1cc(-c2ccccc2)on1	-3.4	?	-2	2.6	-6%	-0.9	5	4
O=c1ccc2ccc(O[C@@H]3O[C@H](CO)[C@@H](O)[C@H](O)[C@H]3O)c(O)c2o1	0.5	nt	-1	-5.8	nt	0.3	nt	nt
CCCCCC(=O)NC(=S)Nc1ccc(Br)cc1C	-2.0	-1.4	nt	-2.7	-9%	-0.5	0	5
CCCOc1ccc(-c2nc(N3CCN(CC)CC3)c3ccccc3n2)cc1	-3.4	-3.5	7	2.2	-1%	-0.2	34	9
CC(Cc1ccccc1)N/C=C1\CC(=O)NC1=O (stereo not given)	4.1	-1.2	-8	nt	-1%	0.4	-14	-1
Cc1cc(C)c(C)c(S(=O)(=O)N2CCCN(C)CC2)c1C	0.9	0.1	-4	0.3	nt	-0.6	8	-10
Cc1ccc(C(=O)N/C(=C/c2ccco2)C(=O)N2CCOCC2)cc1	5.5	-1.9	-3	-4.0	nt	0.2	-17	-2
O=C1CCC(=O)N1OCCOc1ccc(Cl)c2ccccc12	-1.5	-0.8	2	-1.0	-21%	0.6	-7	0
COc1ccccc1C(=O)NC(CCSC)C(=O)NNC(=O)c1csc(N2CCOCC2)n1 (stereo not given)	-0.4	-5.0	-11	-5.9	nt	-0.8	-14	1
Cc1ccc(S(=O)(=O)Cn2nnnc2C(C(C)C)N2CCSCC2)cc1 (stereo not given)	-3.0	-0.1	-4	-5.8	10%	-0.3	0	7
CC(C)(O)c1[nH]c2ccc(C(F)(F)F)cc2c1C(C)(C)O	-1.3	?	0	-7.5	nt	0.1	-8	-5
CCCN(CCC)CC(=O)NCC1(c2ccccc2)CCOCC1	1.8	0.9	2	nt	1%	0.8	-6	2
Cc1cc(Br)ccc1OCC(=O)N(Cc1nc(-c2ccccc2)no1)C(C)C	2.7	6.7	4	nt	3%	0.0	19	20
N#C/C(=C\c1cn(CCOc2ccccc2F)c2ccccc12)C(=O)NCc1cccs1	-0.1	?	-1	8.0	nt	0.4	0	3
CCN1C(=O)/C(=C\c2ccco2)C(C(=O)OC)=C1C	-0.6	-3.5	-12	nt	23µM*	0.3	19	8
O=C(CN1CCCCC1)Nc1ccc(C(F)(F)F)cc1Cl	0.6	-0.5	-10	-1.3	9%	0.0	nt	-4
Cc1cccc(-c2nc(CC(=O)Nc3cccc(S(=O)(=O)NC4=NCCC4)c3)cs2)c1	-3.2	nt	0	2.6	-5%	0.5	nt	nt
COc1cccc(NC(=O)CN(C)C(=O)c2sc3cc(Cl)ccc3c2Cl)c1	0.4	-1.2	1	0.0	-1%	-0.2	7	nt
O=C(Nc1ccc2cn[nH]c2c1)c1c(Cl)cccc1Cl	-4.9	1.4	nt	nt	3%	0.4	-6	5
COc1cc(OC)cc(C(=O)N2CCN(Cc3cccc(F)c3)CC2)c1	-4.5	2.2	-4	nt	1%	1.0	-2	14
Cc1c(C(=O)O)cccc1N1C(=O)Nc2ccccc2N1O	5.2	1.9	-19	nt	nt	3.7	4	12
CC(=O)Nc1ccc(Nc2nc3c(S(=O)(=O)c4ccc(C)c(C)c4)nnn3c3ccccc23)cc1	5.3	8.4	-20	1.5	-3%	1.3	-2	5
O=C(NCc1ccco1)c1ccc(S(=O)(=O)N2CCOCC2)cc1	2.9	1.8	-11	nt	?	-0.7	-5	10
Cc1nn(CCOc2cccc(Cl)c2)c(C)c1[N+](=O)[O-]	-16	3.0	-9	1.0	2%	1.1	6	25
CC(=O)/C(=N/Nc1cccc(C)c1)N1CCOCC1	-3.7	4.2	0	nt	1%	-0.2	-9	-30
O=C(CCCSc1ccc(Cl)cc1)Nc1cc(S(=O)(=O)N2CCOCC2)ccc1O	0.8	nt	-6	0.1	nt	-1.4	nt	nt
CC(=O)Nc1cccc(NC(=O)C2CC(=O)N(c3ccc(C)cc3)C2)c1 (stereo not given)	1.4	-1.5	-2	5.8	-6%	0.6	5	-2
Cc1nc(NC(=O)c2cccc(Cl)c2)sc1C(=O)N1CCCCC1	-1.7	-2.1	0	2.3	5%	0.1	12	18
CCCCn1nnnc1SCC(=O)NNC(=O)C1CCCCC1	1.7	2.5	-5	nt	0%	-0.1	0	-14
COCCOc1cc(NCc2ccccc2)c2ncn(C(C)C)c2c1	2.2	nt	-5	6.1	nt	-0.8	nt	nt
COc1ccc(C(=O)NCC(=O)N/N=C/c2ccc([N+](=O)[O-])s2)cc1OC	0.1	8.1	91*	2.8	16%	0.3	65*	-7
CN1CCCC(OC(=O)c2cc(Cl)ccc2Cl)C1 (stereo not given)	-2.1	?	0	nt	2%	0.5	-8	-3
C#CCOc1ccc(/C=N/O)cc1Cl	2.6	-4.0	1	-7.3	nt	0.6	-7	-3
CC(=NNC(=O)c1cc(C)oc1C)c1ccc(Br)s1	0.5	nt	3	3.1	nt	0.1	nt	nt
COc1ccc(NC(=O)C2CCCN(C(=O)NC3CCCCC3)C2)cc1OC (stereo not given)	1.7	-1.3	-4	nt	1%	0.7	-5	3
COc1cccc2cc(C(=O)NCc3ccco3)c(=O)oc12	-0.3	-1.8	-2	3.6	nt	0.4	5	1
Cc1cc(Nc2ccc(C(=O)O)cc2)nc(N)n1	-6.6	-1.1	-2	-1.8	-5%	1.1	-7	-2
COc1ccccc1-n1cc(-c2ccc(C)cc2)[nH]c1=S	1.9	-1.6	2	1.8	nt	0.0	12	-7
(cont.)
SMILES	LANA-H2B inh	RanGTP-Imp inh	Beta cell apopt	AF4-AF9 inh	Vif TR-FRET	Bfl-1 A1 inh	T cruzi inh	Calb FLC
COc1ccc(NS(=O)(=O)c2cc(C(=O)N3CCCCCC3)ccc2C)cc1	-1.1	nt	4	-0.4	nt	1.0	nt	nt
COC(=O)c1ccc(NC(=O)Cn2cnc3c(nnn3-c3cccc(OC)c3)c2=O)cc1	1.8	7.2	-1	5.5	0%	0.3	6	-3
COc1ccc(C(=O)/C=C(\C)Nc2ccc3c(c2)OCO3)cc1	15	2.9	3	nt	8%	-1.0	17	-21
CCN(CC)S(=O)(=O)c1cccc(C(=O)N2CC(O)CC2C(=O)O)c1 (stereo not given)	-6.3	5.4	-9	nt	3%	-0.1	-8	-3
O=C1COc2ccc(C(=O)NC3CC3)cc2N1	-0.5	-0.5	-3	0.7	nt	1.0	-4	-10
CN(C(=O)CN1C(=O)c2cccc(N)c2C1=O)C1CCCCC1	1.3	nt	0	-3.5	-9%	1.1	nt	nt
Cc1ccc2cc(CCNS(=O)(=O)c3ccc(Br)cc3)c(=O)[nH]c2c1C	-4.1	2.7	6	7.5	-9%	-1.2	13	4
Cc1ccc2cccc(S(=O)(=O)NC3CCS(=O)(=O)C3)c2n1 (stereo not given)	-0.6	6.2	5	4.5	-5%	-0.3	-12	4
CCC(=O)Nc1ccc(C(=O)CN2C(=O)NC3(CCOc4ccccc43)C2=O)cc1 (stereo not given)	1.3	nt	-3	4.3	4%	0.5	nt	nt
COc1ccc(C(=S)N2CCCC2)cc1C	3.1	?	-6	nt	1%	0.5	-10	8
C=C(NC(C)=O)c1c(F)cccc1F	-3.9	nt	5	0.7	nt	-0.4	nt	nt
O=C(c1ccc(Cl)cc1)N1CCC(C(=O)N2CCCc3ccccc32)CC1	4.7	-0.8	0	0.7	0%	-0.8	2	3
